TDP1 inh – inhibitors of human tyrosyl-DNA phosphodiesterase TDP1 | Potency, µM (doses to about 130 µM), for the others: top-dose activity change, negative = inhibition, usual class: inhibitors | recombinant TDP1, AlphaScreen DNA substrate cleavage | 350,000 tested, 0.28% active | Q9NUW8; active means well fitted inhibition curve with a large enough effect; further: nearly all actives have a fitted effect of over 40% in size
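Here, a 5' biotin and 3' phosphotyrosine-FITC DNA oligonucleotide reports Tdp1 activity: intact substrate bridges AlphaScreen beads, while cleavage leaves a 3' phosphate and drops signal. All incubations at room temperature.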
* marks the source's active call; other numbers are inactive results; [ ] = remark or other dose. On the % scale 0 is the no-effect control and ±100 the full control effect; potency means the concentration at half of the fitted maximal effect. The list is partial, and most or all hits are left out here.

Cn1cnc([N+](=O)[O-])c1Sc1ncnc2nc[nH]c12 was read as TDP1 inh 9%[56.1 µM].
For Cc1c(C(=O)Nc2ccc(OC(F)(F)F)cc2)sc2nc3n(c(=O)c12)CCC3 the results were TDP1 inh 1%.
For CCn1ncc(C(=O)Nc2cc(C)on2)c1C the results were TDP1 inh 1%.
`CC(=O)Nc1ccc(S(=O)(=O)NCc2nc(-c3ccc(C)cc3)no2)cc1` gave TDP1 inh 1%.
Screening COc1ccc(NC(=O)CSc2nnc(Cc3ccccc3)c(=O)n2N)cc1OC returned TDP1 inh 5%[0.505 µM].
For CCN(CCCNC(=O)C1CCN(S(=O)(=O)c2c(C)[nH]c(=O)[nH]c2=O)CC1)c1cccc(C)c1 the results were TDP1 inh 5%.
`COc1cccc(C(C(=O)NC2CCCCC2)N(C(=O)c2ccccn2)c2cccnc2)c1` (centres undefined) gave TDP1 inh 0%.
For CCCCn1c(SCC(=O)Nc2cc(C)on2)nc2ccccc2c1=O the results were TDP1 inh 3%.
Screening Cn1ncc(Br)c1C(=O)O returned TDP1 inh 3%.
CC(=O)OCC(=O)[C@@]12OC(C)(C)O[C@@H]1C[C@H]1[C@@H]3C[C@H](F)C4=CC(=O)C=C[C@]4(C)[C@@]3(F)[C@@H](O)C[C@@]12C was read as TDP1 inh 6%.
For C[C@H]1C[C@@H]2[C@H]([C@@H](O)C[C@@]3(C)[C@H]2CC[C@]3(O)C(=O)CO)[C@@]2(C)C=CC(=O)C=C12 the results were TDP1 inh 5%.
`CCOc1ccc(C=NC23CN4CN(CN(C4)C2)C3)cc1` gave TDP1 inh 0%.
CN(C)CC[C@H](c1ccc(Cl)cc1)c1ccccn1 was read as TDP1 inh 3%[21 µM].
Screening CCOC(=O)c1sc(S(C)(=O)=O)c2c1CC(C)(C)C/C2=N/O returned TDP1 inh 0%.
For Cc1nc2cc(S(=O)(=O)N3CCC(C(=O)O)CC3)ccc2n1C1CCCC1 the results were TDP1 inh -1%.

Gathered by group: those above with an aryl methoxy group
Screening COc1ccc(NC(=O)CSc2nnc(Cc3ccccc3)c(=O)n2N)cc1OC returned TDP1 inh 5%[0.505 µM].
`COc1cccc(C(C(=O)NC2CCCCC2)N(C(=O)c2ccccn2)c2cccnc2)c1` (centres undefined) gave TDP1 inh 0%.

Of the compounds above, 8 contain four or more nitrogen atoms:
Cn1cnc([N+](=O)[O-])c1Sc1ncnc2nc[nH]c12 was read as TDP1 inh 9%[56.1 µM].
For CCn1ncc(C(=O)Nc2cc(C)on2)c1C the results were TDP1 inh 1%.
`CC(=O)Nc1ccc(S(=O)(=O)NCc2nc(-c3ccc(C)cc3)no2)cc1` gave TDP1 inh 1%.
Screening COc1ccc(NC(=O)CSc2nnc(Cc3ccccc3)c(=O)n2N)cc1OC returned TDP1 inh 5%[0.505 µM].
For CCN(CCCNC(=O)C1CCN(S(=O)(=O)c2c(C)[nH]c(=O)[nH]c2=O)CC1)c1cccc(C)c1 the results were TDP1 inh 5%.
`COc1cccc(C(C(=O)NC2CCCCC2)N(C(=O)c2ccccn2)c2cccnc2)c1` (centres undefined) gave TDP1 inh 0%.
For CCCCn1c(SCC(=O)Nc2cc(C)on2)nc2ccccc2c1=O the results were TDP1 inh 3%.
`CCOc1ccc(C=NC23CN4CN(CN(C4)C2)C3)cc1` gave TDP1 inh 0%.

The list continues.
C[N+](C)(C)CCO was read as TDP1 inh 5%.
CC(C)(C)NCC(O)c1ccc(O)c(CO)c1 (centres undefined) was read as TDP1 inh 6%[56.1 µM].
Screening O=C(COC(=O)c1ccc(NS(=O)(=O)c2ccc3c(c2)OCCO3)cc1)NC1CCS(=O)(=O)C1 (centres undefined) returned TDP1 inh -6%.
Screening Cc1ccccc1C(=O)N/C(=C/c1ccc(-c2cccnc2Cl)o1)C(=O)NCCCN1CCN(C)CC1 returned TDP1 inh 2%.
For COc1cc(NS(=O)(=O)c2ccc(N)cc2)ncn1 the results were TDP1 inh -1%.
`CCOC(=O)CSc1nc(CC)nc2ccccc12` gave TDP1 inh 2%.
`CCNC(=O)C1CC(=O)N(CC)C(=Nc2cc(Cl)c(O)c(Cl)c2)S1` (centres undefined) gave TDP1 inh 4%.
Cc1oc(-c2cccc(Cl)c2)[n+]([O-])c1C was read as TDP1 inh 0%.
